# YopH inh = inhibitors of Yersinia enterocolitica YopH tyrosine phosphatase; inhibition, %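 (about 10 µM by stock and volumes)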; fluorescence Ex485/Em525; 140,000 tested, 0.16% active;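 active = inhibition of 50% or more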;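 note: controls were vehicle for no effect and minimum signal wells for full effect; inactives centre near -20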
# Mtb betalactam = beta-lactam sensitization of Mtb H37Rv; M. tuberculosis H37Rv growth with meropenem, percent inhibition; hits of this screen are not shown here; inhibition, % at 25 µM; 330,000 tested, 0.27% active;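 active = about 74% or more and at least 40 points above the plate without the antibiotic, then above 30% in a dose series; inconclusive = first-round hits that could not be retested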;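 note: growth measured after seven days incubation then overnight dye step; 0% = bacteria only wells and 100% = bacteria with antibiotic; twin plates without the antibiotic show which effects depend on it; some results filed as inactive read as strong as hits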
# Arbovirus inh = blocks arbovirus infection | arbovirus infection cell-based antiviral screen | inhibition, % at 10 µM | 200,000 tested, 0.37% active | AID 1251;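 active = inhibition from about 30%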;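 note: bluetongue infection of BSR cells; cell survival read as ATP light after 72 h; 0% = infected wells without compound and 100% = uninfected wells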
# RecA intein inh = inhibitors of M. tuberculosis RecA intein splicing; P9WHJ3; cell-free RecA intein splicing, fluorescence; inhibition, %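 (about 9 µM by stock and volumes)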; 290,000 tested, 0.75% active; in the data active = inhibition above about 30%; inconclusive = no clear call, values can overlap the other calls;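 note: 0% = vehicle wells and 100% = reference inhibitor control wells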
# Target sequence (P9WHJ3 whole entry, looked up): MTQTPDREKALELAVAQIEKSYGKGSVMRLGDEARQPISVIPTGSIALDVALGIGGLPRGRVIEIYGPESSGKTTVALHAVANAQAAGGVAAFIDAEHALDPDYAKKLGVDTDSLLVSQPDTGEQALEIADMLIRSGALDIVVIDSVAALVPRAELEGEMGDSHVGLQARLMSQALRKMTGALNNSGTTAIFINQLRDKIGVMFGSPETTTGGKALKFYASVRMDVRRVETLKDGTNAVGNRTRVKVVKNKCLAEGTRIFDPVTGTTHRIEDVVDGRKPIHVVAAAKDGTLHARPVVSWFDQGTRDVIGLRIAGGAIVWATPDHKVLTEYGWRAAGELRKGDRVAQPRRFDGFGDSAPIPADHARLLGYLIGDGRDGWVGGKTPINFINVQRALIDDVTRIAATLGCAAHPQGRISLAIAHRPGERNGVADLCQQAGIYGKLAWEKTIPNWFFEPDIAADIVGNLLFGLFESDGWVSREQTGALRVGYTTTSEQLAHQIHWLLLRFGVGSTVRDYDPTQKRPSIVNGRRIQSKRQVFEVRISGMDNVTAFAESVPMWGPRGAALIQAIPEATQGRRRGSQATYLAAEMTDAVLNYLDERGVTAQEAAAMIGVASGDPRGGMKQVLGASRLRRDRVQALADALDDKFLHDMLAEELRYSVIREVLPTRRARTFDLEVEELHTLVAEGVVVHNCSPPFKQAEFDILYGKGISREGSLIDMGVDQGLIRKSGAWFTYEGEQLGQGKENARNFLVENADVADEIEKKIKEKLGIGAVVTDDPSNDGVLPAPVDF
# Mtb growth = M. tuberculosis H37Rv growth inhibitors, H37Rv strain (AID 1626). inhibition, % at 10 µM, or IC50 in µM where a hit was titrated. M. tuberculosis H37Rv growth inhibition; higher % means a stronger effect. 220,000 tested, 0.95% active;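 active = confirmed in a dose series; inconclusive = inhibition above 80% but not taken into the dose series; inactive = below 80% or under 30% at every dose of the series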;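 note: bacteria incubated seven days before Alamar blue readout; 0% = bacteria only wells and 100% = bacteria with antibiotic wells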
# Arbovirus inh repeat = also measured in Arbovirus inh; calls as there; inhibition, %; measured here: 10K subset replicate screen; many hits read low in the repeat;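 first of two repeat runs on a subset; 0% = infected and 100% = uninfected wells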
# * hit, by the source's call; u = inconclusive; x = not tested or not shown.
# Preview (4 entries):
SMILES,YopH inh,Mtb betalactam,Arbovirus inh,RecA intein inh,Mtb growth,others
CCc1nnc(NC(=O)c2cc(-c3ccco3)nc3ccccc23)s1,x,-2,18,-4.9,0%,
COc1ccc2oc(=O)c(C(=O)N3CCN(c4ccccc4F)CC3)cc2c1,10,1,3,-2.4,-14%,
Cc1cc(=O)oc2n[nH]c(-c3ccccc3)c12,5,-1,-2,-0.4,x,
Cc1ccc(CN2CCC(n3nccc3NC(=O)CCOc3ccccc3)CC2)cc1C,x,4,x,0.8,x,

# The whole of this part, repeating the preview:
SMILES,YopH inh,Mtb betalactam,Arbovirus inh,RecA intein inh,Mtb growth,others
CCc1nnc(NC(=O)c2cc(-c3ccco3)nc3ccccc23)s1,x,-2,18,-4.9,0%,
COc1ccc2oc(=O)c(C(=O)N3CCN(c4ccccc4F)CC3)cc2c1,10,1,3,-2.4,-14%,
Cc1cc(=O)oc2n[nH]c(-c3ccccc3)c12,5,-1,-2,-0.4,x,
Cc1ccc(CN2CCC(n3nccc3NC(=O)CCOc3ccccc3)CC2)cc1C,x,4,x,0.8,x,
CC(C)CCOC(=O)C1C(c2ccccc2)C(C(=O)O)C1c1ccccc1 (centres undefined),-35,4,15,3.7,4%,
Fc1ccc(/C=N/Nc2nc3ccccc3[nH]2)cc1F,x,4,0,x,13%,
COc1ccccc1C/C(N)=N/OC(=O)COc1ccccc1C,-23,15,3,9.5,9%,
O=C(O)/C=C/c1cn(-c2ncc(C(F)(F)F)cc2Cl)c2ccccc12,-42,-1,10,3.9,-3%,
Cc1cc(C(=O)OCC(=O)Nc2cc(S(=O)(=O)N(C)C)ccc2C)c(C)o1,x,-1,8,1.2,9%,
O=C(NC(=S)N1CCN(C/C=C/c2ccccc2)CC1)c1ccc(Cl)nc1,x,83,x,0.6,u,
CCOC(=O)CNC(=O)c1ccc(SCC)cc1,x,0,x,-1.6,-20%,
CCOC(=O)N1CCN(C(=O)C(CC(C)C)NC(=O)C2CCCCC2)CC1 (centres undefined),-31,u,4,-1.5,-5%,Arbovirus inh repeat=3
CC(OC(=O)CSc1ccc([N+](=O)[O-])cc1)C(=O)NCc1ccco1 (centres undefined),x,4,x,-3.7,x,
COc1ccc(C(=O)OCc2csc(C)n2)c(O)c1,x,4,-2,-13,5%,
O=C(C[n+]1cc(-c2ccc(F)cc2)n2c1CCC2)OCc1ccccc1,-31,-1,3,2.9,-10%,
Cc1cc(N2CCN(c3ccc(C(F)(F)F)cc3[N+](=O)[O-])CC2)c2ccccc2n1,x,100,x,13,x,
CC(=O)c1ccc(N2C(=NC(=O)C3CCCO3)SC3CS(=O)(=O)CC32)cc1 (centres undefined),x,-4,x,-2.3,x,
Cc1cc(C)n(-c2nc3sc4c(c3c(=O)[nH]2)CCCC4)n1,-21,u,-32,-0.2,x,
CCOC(=O)C1CCCN(C(=O)c2cc3c(OC)c(OC)c(OC)cc3[nH]2)C1 (centres undefined),x,-8,x,0.1,x,
Cc1ccc(-c2csc(NC(=O)c3ccc(F)cc3)c2C(=O)O)cc1,x,16,x,2.7,x,
CCc1ccccc1NC(=O)CN(C)C(=O)COc1ccc(C)nc1[N+](=O)[O-],-38,x,4,-2.1,1%,
COC(=O)Cn1cnc2sc(C)c(S(=O)(=O)N3CCN(c4ccccc4OC)CC3)c2c1=O,-42,8,6,-0.3,-10%,
COc1ccc(CCN(Cc2cc3cccc(C)c3[nH]c2=O)C(=O)N2CCCC2)cc1OC,-26,-4,-2,0.3,-5%,
CCn1nc(C)c(CNC(=O)c2cc(COc3cncc(Cl)c3)on2)c1C,x,1,x,0.0,x,
COc1ccc(-c2cc(C(=O)NCC(c3ccco3)N(C)C)c3ccccc3n2)cc1OC (centres undefined),x,-1,x,-1.6,x,
CCCCCc1nc(N)c(C#N)c(-c2ccco2)c1CCCC,5,11,0,-0.7,4%,
COc1ccccc1-c1nnc(SCC(=O)Nc2ccc(Cl)cc2Cl)o1,-2,7,11,6.8,-2%,Arbovirus inh repeat=9
CCNc1nc(N)nc(Oc2ccc(OCc3ccccc3)nn2)n1,-5,3,-2,-2.9,-3%,
O=C(NN=C1C2CC3CC(C2)CC1C3)c1cccs1,-2,6,9,-1.2,-9%,
CCOc1ccc(-c2nnn(CC(=O)N3CCCC3)n2)cc1OCC,31,-3,6,1.2,2%,

# Four consecutive records out of the list so far, for reference:
SMILES,YopH inh,Mtb betalactam,Arbovirus inh,RecA intein inh,Mtb growth,others
CCc1ccccc1NC(=O)CN(C)C(=O)COc1ccc(C)nc1[N+](=O)[O-],-38,x,4,-2.1,1%,
COC(=O)Cn1cnc2sc(C)c(S(=O)(=O)N3CCN(c4ccccc4OC)CC3)c2c1=O,-42,8,6,-0.3,-10%,
COc1ccc(CCN(Cc2cc3cccc(C)c3[nH]c2=O)C(=O)N2CCCC2)cc1OC,-26,-4,-2,0.3,-5%,
CCn1nc(C)c(CNC(=O)c2cc(COc3cncc(Cl)c3)on2)c1C,x,1,x,0.0,x,

# (more compounds)
SMILES,YopH inh,Mtb betalactam,Arbovirus inh,RecA intein inh,Mtb growth,others
CC(=O)Nc1cccc(OCCCNC(=O)c2ccc(C(C)(C)C)cc2)c1,x,-7,x,1.8,-4%,
C=C(C)CNC(=S)N/N=C(\C)c1ccc(Cl)s1,-19,98,-3,2.1,u,
CCOc1ccccc1NC(=O)C(NC(=O)C1CCC(C)CC1)C(C)C (centres undefined),x,35,8,2.2,24%,
N#Cc1ccccc1-c1ccccc1C(=O)N1CCCCC1,x,-9,x,-3.8,x,
CCOC(=O)NCc1ccc2c(c1)cc(C)n2C,-18,55,-3,15,0%,
O=C1/C(=C/c2ccccn2)SC(=S)N1Cc1ccccc1,x,5,x,2.5,-6%,
CCc1nnc(NC(=O)[C@@H](NC(=O)c2cccc(S(=O)(=O)N3CCOCC3)c2)C(C)C)s1,-75,-13,9,-2.6,-2%,
CC(C)c1ccc(N2C(=O)NC(=O)/C(=C\C=C\c3ccco3)C2=O)cc1,x,92,-1,-1.0,16%,
Cc1cc(C)n(/N=C/c2cccc(O)c2)c(=O)c1C(N)=O,-57,-6,7,1.3,-4%,Arbovirus inh repeat=23
COc1ccc(OC)c(NS(=O)(=O)c2cccs2)c1,-20,5,-4,0.3,0%,
CCN1C(=O)c2cccc3c(S(=O)(=O)N(C(=O)c4cccnc4)c4ccc(OC)cc4)ccc1c23,-43,3,16,12,-6%,
CN(C)c1ccc(C(c2nnnn2C(C)(C)C)N2CCN(C(=O)c3ccco3)CC2)cc1 (centres undefined),-24,-4,12,2.2,-4%,
CC(=O)Nc1ccc(NC(=O)COc2ccc(S(=O)(=O)NC(C)c3ccccc3)cc2)cc1 (centres undefined),x,-4,0,-0.8,6%,
C[C@@H]1CCC[C@]2(O[C@@H](CCO)C[C@@H](O)[C@@H]2O)O1,x,-8,x,0.3,-3%,
CN(c1ccc(C(=O)N2CCN(Cc3ccc4c(c3)OCO4)CC2)cc1)S(=O)(=O)c1ccccc1,1,43,-5,6.9,7%,
O=[N+]([O-])c1ccccc1-c1ccc(CN2CCN(c3ccccc3)CC2)o1,x,2,x,4.2,x,
O=C(N/N=C/c1ccccc1)c1ccco1,x,-2,x,-4.8,-3%,
Cc1ccc(-n2ncc(C(=O)NCC3CCN(C4CCCC4)C3)c2C2CCN(C(=O)OC(C)(C)C)CC2)cc1C (centres undefined),x,4,x,0.8,x,
Cc1cc([N+](=O)[O-])ccc1N(C)C,-23,-7,-4,-1.0,-9%,
O=C(NC1=NCCS1)c1cc(-c2cccc(Br)c2)nc2ccccc12,19,95,2,6.2,30%,
O=C1C(Cc2ccccc2)Nc2ncnc(N3CCOCC3)c2N1Cc1ccc(Cl)cc1 (centres undefined),x,0,x,2.4,x,
Cc1csc(SC(C)C(=O)NCC2CCCCC2)n1 (centres undefined),x,-2,-4,-2.7,-8%,
O=C(CSc1n[nH]c(-c2cccnc2)n1)Nc1ccnc2ccccc12,-48,1,0,3.5,-11%,
CCOC(=O)CSc1nnc(C2CCCCC2)n1C,-41,3,4,-0.7,0%,
CN(C)c1ccc(NC(=O)CN2CCN(CC(=O)Nc3ccc(F)cc3)CC2)cc1,-42,-4,0,-8.1,2%,
CCOC(=O)C1(Cc2ccc(Cl)cc2)CCN(CCCn2cccn2)CC1,x,8,-24,1.2,-3%,
CC(=O)N1CC=C2C(C#N)=C(N)C(C#N)(C#N)C(C)C2C1 (centres undefined),-8,4,4,-6.1,-17%,
OC1CCCN(Cc2c3ccccc3cc3ccccc23)C1 (centres undefined),2,5,-42,-3.1,-2%,
CCCN1CCN(C(=O)CCCNC(=O)Cn2cnc3sc(C)c(C)c3c2=O)CC1,4,-2,3,1.7,8%,
CC(C)C(=O)Nc1cccc(-c2cn3ccsc3n2)c1,-16,6,-13,2.0,-10%,
CC1CCCCN1C(=O)CSc1nnc(-c2ccco2)n1C (centres undefined),x,2,x,5.3,x,
CCOC(=O)c1c(NC(=O)C[n+]2ccc(Cc3ccccc3)cc2)sc(C)c1C,x,96,-6,2.1,53%,
O=C(c1ccc2ccccc2c1)c1c[nH]cc1-c1ccccc1,-14,-3,-7,-0.5,3%,
COc1cnc(-c2ccccn2)nc1Sc1ccccc1Cl,-6,81,-22,21,1.9µM*,
Cc1ccc2c(c1)Sc1ccccc1CC2=O,-30,21,-4,4.5,-3%,
CC(C)(C)c1ccc(C(=O)NNc2cc(Cl)cc(Cl)c2)cc1,x,92,x,-1.9,-6%,
CCCOc1ccc(C(CC(=O)O)NC(=O)C23CC4CC(CC(C4)C2)C3)cc1 (centres undefined),-17,-8,2,0.0,-4%,
CC(C)(C)C1CCc2onc(C(=O)Nc3ccc(F)cc3F)c2C1 (centres undefined),-6,-10,-1,-3.6,-3%,
COC(=O)CN(c1ccc(C)c(Cl)c1)S(C)(=O)=O,7,-3,0,-0.9,-8%,
CC(C(=O)NCc1cccc(Cl)c1)N1C(=O)c2ccccc2C1=O (centres undefined),x,-2,x,1.4,x,

# Retrieved by compound from the entries so far:
SMILES,YopH inh,Mtb betalactam,Arbovirus inh,RecA intein inh,Mtb growth,others
COC(=O)CN(c1ccc(C)c(Cl)c1)S(C)(=O)=O,7,-3,0,-0.9,-8%,
CC(C(=O)NCc1cccc(Cl)c1)N1C(=O)c2ccccc2C1=O (centres undefined),x,-2,x,1.4,x,
CC(C)(C)c1ccc(C(=O)NNc2cc(Cl)cc(Cl)c2)cc1,x,92,x,-1.9,-6%,
CC(C)(C)C1CCc2onc(C(=O)Nc3ccc(F)cc3F)c2C1 (centres undefined),-6,-10,-1,-3.6,-3%,

# (cont.)
SMILES,YopH inh,Mtb betalactam,Arbovirus inh,RecA intein inh,Mtb growth,others
COc1ccc(NC(=O)CCNS(=O)(=O)c2cccc3nonc23)c(OC)c1,x,-9,x,7.8,x,
O=C(NCCN1CCN(c2cccc(Cl)c2)CC1)c1ccc(CSc2nc3ccncc3[nH]2)cc1,x,98,-23,8.0,12%,
O=C(O)c1cccc2c1C(=O)N(C1CCCCC1)C2,-38,-3,6,3.8,-3%,Arbovirus inh repeat=1
CCCN1CCN(CCCNC(=O)c2ccc3c(Cl)c4c(nc3c2)CCCC4)CC1,x,-8,x,5.7,x,
O=C(CCNC(=O)c1ccc([N+](=O)[O-])cc1)NCCCN1CCCC1=O,x,-8,x,-0.5,x,
O=C(c1cnn2ccccc12)N1CCc2ccccc21,-37,-3,3,0.5,4%,Arbovirus inh repeat=-2
Cc1cccc(NC(=O)CN(C2=NC3CS(=O)(=O)CC3S2)c2ccccc2F)c1 (centres undefined),x,-4,x,-1.1,x,
COCCN(C(=O)COC(=O)C(c1ccccc1)c1ccccc1)c1c(N)n(Cc2ccccc2)c(=O)[nH]c1=O,x,5,x,3.0,x,
COc1cc2nc(SCC(=O)NCc3ccco3)n(Cc3ccc(Cl)cc3)c(=O)c2cc1OC,-3,6,6,-0.7,-4%,
CCOC(=O)C1=C(C)N=C2SCCC(=O)N2[C@@H]1/C=C/c1ccccc1,3,0,0,4.9,6%,
Cc1cccc(C)c1NC(=S)N/N=C/c1ccc(OCCC(C)C)cc1,-22,-3,3,3.2,-1%,
COc1cccc(C(=O)Nc2ccc3c(c2)C(=O)c2ccccc2C3=O)c1,-10,-2,-23,0.3,0%,
Cc1ccc[n+](-c2[nH]c(=O)sc2/C=N/NC(=O)c2ccccc2[O-])c1,-8,3,6,1.4,5%,
CCCCNC(=O)N1CCN(c2ccccc2OCC)CC1,x,-6,10,-1.8,-5%,

# This is a subset; count on the stated rates, not on these rows.
